RE007 growth inh – qHTS Assay for Inhibitors of the HIV-1 protein Vpr; S. pombe RE007 Vpr strain, BacTiter-Glo ATP luminescence, 24 h; control for the full effect not named in the record; Potency, µM (doses to about 92.2 µM), inactives show at the highest dose activity change, negative = less growth; hit rate 0.21% among 360,000; AID 651644, 2012; active = well fitted falling curve with a large enough effect; inconclusive = small, poorly fitted or top-dose-only effect; inactive = no such curve, though single readings can be large or run the other way;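 note: % is set by controls: 0 for no effect and ±100 for the full control effect; nearly all actives have a fitted effect of over 50% in size; the assay follows cell death caused by Vpr and the record does not say whether a fall means rescue or toxicity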
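Fission yeast RE007 carrying one integrated HIV-1 vpr copy, seeded at OD 0.01 in PMG+AL medium with 23 nL pinned compound. Grown 24 h at 30 degrees; viability read by BacTiter-Glo luminescence after 5 min.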
Cruzain inh noDet – qHTS Assay for Promiscuous and Specific Inhibitors of Cruzain (without detergent). hit rate 2.3% among 200,000. Potency, µM, for the others: max response, negative = inhibition, most hits filed as inhibitors. AID 1476, 2009. purified cruzain, Z-FR-AMC fluorescence, no detergent;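 note: plate controls were enzyme without inhibitor for no effect and buffer without enzyme for full effect; nearly all actives have a fitted effect of over 40% in size; top concentration of the series not given in the record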
Target sequence (P25779 123-467 limits assumed): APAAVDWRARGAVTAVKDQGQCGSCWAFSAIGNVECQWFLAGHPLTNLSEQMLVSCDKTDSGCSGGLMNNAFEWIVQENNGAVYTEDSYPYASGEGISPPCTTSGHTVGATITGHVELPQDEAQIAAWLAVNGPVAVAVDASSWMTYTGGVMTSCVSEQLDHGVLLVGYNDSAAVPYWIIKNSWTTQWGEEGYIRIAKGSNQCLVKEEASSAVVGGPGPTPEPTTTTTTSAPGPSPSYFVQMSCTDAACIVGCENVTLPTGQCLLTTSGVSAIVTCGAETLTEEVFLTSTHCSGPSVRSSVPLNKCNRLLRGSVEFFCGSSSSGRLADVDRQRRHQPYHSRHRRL
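Purified cruzain at 1.5 nM, pre-incubated 15 min with compound at room temperature in 100 mM sodium acetate pH 5.5, 5 mM DTT, 0.00005% Triton X-100. Reaction started with 2 uM Z-FR-AMC; AMC fluorescence increase over 60 s gives rate.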
Lassa entry inh – qHTS for Inhibitors of binding or entry into cells for Lassa Virus; AID 540256, 2011; hit rate 1.2% among 300,000; Lassa virus pseudotype entry inhibition, cell reporter; control for the full effect not named in the record; Potency, µM (titrated, usually from 37.9 µM), for inactives: at the highest dose activity change, negative = inhibition, most hits filed as inhibitors; active means well fitted inhibition curve with a large enough effect; inconclusive means small, poorly fitted or top-dose-only effect, or effect the other way; inactive means flat fitted curve, though single readings scatter; tested in HEK293 cells; note: % is set by controls: 0 for no effect and ±100 for the full control effect; nearly all actives have a fitted effect of over 50% in size; luciferase read-out
Cruzain Triton – qHTS Assay for Promiscuous and Specific Inhibitors of Cruzain (with detergent); Potency, µM, without a hit: max response, negative = inhibition, actives largely listed as inhibitors; purified cruzain, Z-FR-AMC fluorescence, 0.01% Triton; hit rate 0.43% among 200,000; Cruzipain (Trypanosoma cruzi), P25779;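 note: plate controls were neutral wells for no effect and buffer without enzyme for full effect; nearly all actives have a fitted effect of over 40% in size; top concentration of the series not given in the record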
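Cruzain (1.5 nM) preincubated 15 min at RT with compound in 100 mM sodium acetate pH 5.5, 5 mM DTT, 0.01% Triton X-100. Reaction started with 2 uM Z-FR-AMC; AMC fluorescence (ex 360/em 450 nm) change over 60 s gave rate.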
2A StopGo – High Throughput Screening for Foot and Mouth Disease Virus Antivirals. Potency, µM (highest dose often 57.9 µM), for inactives: top-dose signal change, negative = less light. hit rate 1.2% among 410,000. human cells with a luciferase reporter of 2A StopGo recoding; control for the full effect not named in the record. AID 1159524, 2015; active = well fitted falling curve with a large enough effect; inconclusive = small, poorly fitted or top-dose-only effect; inactive = no such curve, though single readings can be large or run the other way; tested in HEK293T cells; note: % is set by controls: 0 for no effect and ±100 for the full control effect; nearly all actives have a fitted effect of over 45% in size; luciferase light after 4 h
NS1 function inh – qHTS Assay for Inhibitors of Influenza NS1 Protein Function | S. cerevisiae slowed by influenza A NS1, growth recovery by OD600 | Potency, µM (titrated, usually from 46.1 µM), inactives show at the highest dose activity, positive = more growth | hit rate 0.4% among 270,000; active means well fitted rising curve with a large enough effect; inconclusive means small, poorly fitted or top-dose-only effect; inactive means no such curve, though single readings can be large or run the other way; note: nearly all actives have a fitted effect of over 50% in size
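OD600 was taken as the measure of yeast growth restored by compound in an NS1-expressing S. cerevisiae strain. Cells had been washed out of glucose medium and diluted 1:100 into galactose -URA medium, pH 6.0.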
SARS PLpro yeast – qHTS of Yeast-based Assay for SARS-CoV PLP | S. cerevisiae expressing SARS-CoV PLpro, growth rescue; control for the full effect not named in the record | Potency, µM (titrated, usually from 32.9 µM), for the others: at the highest dose activity, positive = growth rescue | hit rate 0.19% among 330,000; active means well fitted rising curve with a large enough effect; inconclusive means small, poorly fitted or top-dose-only effect; inactive means no such curve, though single readings can be large or run the other way; note: 0% is about no effect; nearly all actives have a fitted effect of over 55% in size; growth read by luminescence after 48 h
Marburg entry inh – qHTS for inhibitors of binding or entry into cells for Marburg Virus | Marburg virus pseudotyped entry inhibition, cell reporter; control for the full effect not named in the record; about a third of the inactives were read at about 46 µM | Potency, µM (series often up to 37.8 µM), for the others: top-dose activity change, negative = inhibition, usual class: inhibitors | hit rate 1.8% among 300,000 | AID 540276, 2011; active = well fitted inhibition curve with a large enough effect; inconclusive = small, poorly fitted or top-dose-only effect, or effect the other way; inactive = flat fitted curve, though single readings scatter; tested in HEK293 cells; about a fifth of its hits are not listed in these tables; note: % is set by controls: 0 for no effect and ±100 for the full control effect; luciferase read-out
Starred values were filed as active, the others as inactive; u = inconclusive; x = not tested or not shown; [ ] = remark or other dose. Unless noted, calls come from the whole dose curve; as a rule, active = well fitted curve in the direction sought with a large enough effect; inconclusive = small, poorly fitted or top-dose-only effect, or another doubt; inactive = no such curve, though single readings can be large; an effect the other way counts as inactive or inconclusive. Potency is the fitted concentration of half-maximal effect.

SMILES	RE007 growth inh	Cruzain inh noDet	Lassa entry inh	Cruzain Triton	2A StopGo	NS1 function inh	SARS PLpro yeast	Marburg entry inh
Cc1ccc(NN=Nc2nc3c([nH]2)c(=O)n(C)c(=O)n3C)cc1	3%	3%	0%	-4.9%	7%	4%	u	28%
Cn1c(C23CC4CC(CC(C4)C2)C3)n[nH]c1=S	-14%	-2%	1%	-0.9%	-26%	23%	13µM*	-1%
O=C(c1ccc(CNS(=O)(=O)c2ccccc2)cc1)N1CCN(c2ccccn2)CC1	2%	10%	-6%	5.8%	u	-32%	3%	u
Cc1ccccc1S(=O)(=O)Cc1ccc(C(=O)NC2CCCCCC2)o1	0%	x	u	x	-23%	14%	-2%	-6%[46.1 µM]
O=C(NNC(=S)NCc1ccccc1)c1ccc(Br)cc1	14%	x	x	x	-7%	-11%	-2%	1%[46.1 µM]
COc1ccccc1-c1nnc(C2CCN(S(=O)(=O)c3ccc(F)c(C)c3)CC2)o1	x	u	-23%[46.1 µM]	-7.0%	-16%	x	x	u
O=C(O)c1ccc(Cl)c(NC(=S)NC(=O)c2cccc(COc3ccccc3)c2)c1	49%	x	-20%	x	1%	5%	0%	-3%
COC(=O)CC1C(=O)NCCN1C(=O)c1sc2ccccc2c1Cl (stereo not drawn)	1%	x	x	x	24%	-8%	0%	x
Cc1ccc(S(=O)(=O)N2CCN(C3CCN(Cc4ccccc4)CC3)CC2)cc1	0%	4%	-5%	4.2%	x	-3%	3%	0%
CCn1c(-c2csc(-c3ccccc3)n2)n[nH]c1=S	-2%	u	1%	-3.0%	0%	-20%	x	0%
COC(=O)N(NC(=O)C(O)(c1ccccc1)c1ccccc1)c1ccccc1	7%	5%	-6%	0.3%	-14%	1%	-3%	-5%
COC(=O)N/N=C/c1c(C)nn(-c2cccc(Cl)c2)c1Cl	47%	-4%	-19%	1.1%	27%	-6%	-46%	-11%
O=C1CCCN2N=C(SCC(=O)Nc3ccc(OC(F)(F)F)cc3)SC2=N1	-2%	x	10%	x	u	-2%	0%	-7%[46.1 µM]
Cc1ccc(Cl)cc1N1CCN(C(=O)c2ccc(NS(=O)(=O)c3c(C)noc3C)cc2)CC1	-14%	1%	u	-0.9%	0%	u	-6%	u
O=C(CN1CCCc2ccccc21)NCCc1ccc(Cl)cc1	18%	x	4%	x	7%	x	-12%	u
CSc1ccc(/C=C2\CCn3c2nc2cc(C(=O)O)ccc2c3=O)cc1	14%	x	10%	x	25%	4%	18%	u
CSCc1ccc(C(=O)NC(C)c2ccc(-n3ccnc3)cc2)cc1 (stereo not drawn)	-6%	x	x	x	2%	-5%	4%	x
Cc1ccc(C(=O)N[C@@H](C)CN2C3=NC[C@H](Cc4ccccc4)N3C[C@H]2Cc2ccc(O)cc2)cc1Br	3%	x	x	x	-24%	0%	4%	x
CC(C)CNC1=C(C(=S)Nc2ccccc2)C(=O)CC(C)(C)C1	0%	-22%	u	-6.2%	-17%	1%	-5%	u
CCc1cc(=O)oc2cc(C)cc(OCc3nn[nH]n3)c12	1%	-12%	2%	1.7%	9%	2%	9%	1%
CCC1(C)N=C(c2ccc3c(c2)OCO3)CC(c2ccccc2O)N1 (stereo not drawn)	-1%	u	-14%	-3.8%	43%[activator]	-5%	-26%	u
Cc1cc(=O)n2nc(N3CCCC(C(=O)NCCCN4CCc5ccccc5C4)C3)sc2n1 (stereo not drawn)	-1%	-14%	1%	-5.8%	-5%	-11%	4%	u
COC(=O)c1cc(OC)c(OC)cc1NC(=O)CSc1nnnn1Cc1ccccc1	17%	u	-12%	-1.8%	-37%	-28%	4%	5%
CC(=O)/C=C/c1ccc(C)o1	2%	x	2%	x	-7%	x	3%	16%
O=S(=O)(c1cccc(F)c1)N1CCC(c2nc3ccccc3s2)CC1	x	1%	-4%[46.1 µM]	3.1%	-6%	x	x	6%[46.1 µM]
O=C(CN1CCCCCCC1)Nc1ccc(Cl)cc1Cl	2%	x	x	x	12%	x	0%	8%[46.1 µM]
CC(C)c1ccc(CNc2ncccn2)cc1	-3%	x	19%	x	60%[activator]	-4%	-6%	0%
Cc1c(NC(=O)C(C)OC(=O)CCc2ccccc2)c(=O)n(-c2ccccc2)n1C (stereo not drawn)	-3%	x	-18%	x	-8%	0%	2%	24%[46.1 µM]
COc1ccc(C2=NOC(CNC(=S)N3CCOCC3)C2)cc1 (stereo not drawn)	-3%	x	u	x	47%	1%	1%	u
CC(=O)Nc1ccc(N=NN2CCOCC2)cc1	12%	x	15%[46.1 µM]	x	19%	x	11µM*	u
COc1cc(NC(=O)c2onc(C)c2Cl)cc(OC)c1OC	-11%	x	x	x	-3%	-7%	-1%	x
CCN(Cc1ccccc1)C(=O)COC(=O)c1cc(S(=O)(=O)Nc2c(C)n(C)n(-c3ccccc3)c2=O)ccc1C	1%	x	-16%[46.1 µM]	x	14%	x	1%	-13%[46.1 µM]
Cc1c(Cl)cccc1NC(=O)CS(=O)(=O)c1ccccc1	-19%	x	-18%[46.1 µM]	x	4%	0%	5%	u
Cc1nc2ccc(NC(=S)N3CCN(c4ccccn4)CC3)cc2nc1C	0%	2%	0%	-2.9%	-17%	-9%	-14%	u
Nc1ccc2c(c1)-c1ccc(F)cc1C2=O	-27%	x	11%	x	6%	x	x	u
CCCCOC(=O)c1ccc(NC(=O)c2ccoc2C)cc1	3%	-9%	-2%	-20%	27%	-14%	-2%	4%
O=C(Nc1ccc(Oc2ncccn2)cc1)c1ccco1	-12%	-9%	8%	1.0%	14%	-8%	-2%	9%
Cc1cccc(NC(=O)C(C)SCc2nc3sc4c(c3c(=O)[nH]2)CCCC4)n1 (stereo not drawn)	3%	x	-1%	x	-11%	x	3%	9%[46.1 µM]
COc1ccccc1NC(=O)N1c2ccc(F)cc2CCC1C (stereo not drawn)	-25%	-12%	-4%	0.1%	-20%	-53%	-3%	6%
Nc1c(N(CCC2=CCCCC2)C(=O)CCCOc2ccccc2)c(=O)[nH]c(=O)n1Cc1ccccc1	3%	x	u	x	-5%	x	-4%	-9%
Cc1ccccc1OCCC(=O)Nc1ccc(N2CCOCC2)cc1N1CCOCC1	17%	x	-1%	x	-16%	x	0%	-16%
CCOc1ccccc1C(=O)N1CCC(c2nc3ccccc3o2)CC1	x	-17%	-11%[46.1 µM]	-2.7%	-22%	x	x	-23%[46.1 µM]
Cn1c(N)c(C(=O)COC(=O)c2cnc(Cl)c(Cl)c2)c(=O)n(C)c1=O	-1%	x	20%	x	-3%	x	0%	15%[46.1 µM]
CCC(=O)Nc1nc2ccc3sc(C)nc3c2s1	-4%	x	-22%	x	8%	-7%	-3%	u
CCOc1cc(NC(=S)NCC2CCCO2)c(OCC)cc1NC(=O)C1CC1 (stereo not drawn)	7%	x	-11%	x	11%	-3%	1%	-2%
O=C1SCCC1NS(=O)(=O)c1ccccc1[N+](=O)[O-] (stereo not drawn)	39%	x	-1%	x	5%	-9%	1%	12%
Cc1ccc(C)c(N2CCN(S(=O)(=O)c3cc(C(=O)Nc4ccccc4C(F)(F)F)ccc3F)CC2)c1	x	-6%	-18%[46.1 µM]	1.2%	-21%	x	x	x
O=C1C(Cl)=C(N2CCCCC2)C(=O)N1c1ccccc1Cl	-7%	-7%	-6%	-14%	-13%	-29%	-12%	u
COCCN(C(=O)c1snc(C(N)=O)c1N)C(C(=O)NC1CCCCC1)c1ccc(OC)c(OC)c1 (stereo not drawn)	-3%	x	x	x	-1%	10%	14%	x
Cc1ccc(C)c(NC(=O)CSc2cn(CC(=O)N3CCCC3)c3ccccc23)c1	x	15%	3%[46.1 µM]	-3.2%	-14%	x	x	x
CCOc1ccc(CN2CCN(Cc3cn(CC)nc3C)CC2CCO)cc1 (stereo not drawn)	4%	x	x	x	2%	5%	1%	x
COc1ccc(CCC(=O)NNC(=O)Nc2ccc(C(C)=O)cc2)cc1	-3%	x	0.71µM*	x	24%	13%	-6%	6%
CCOc1ccc(N2C(=O)CC(/C=C3/N(C)c4ccccc4C3(C)C)C2=O)cc1 (stereo not drawn)	9%	-13%	u	-0.5%	2%	6%	x	26%
Cc1ccc(Cl)cc1NS(=O)(=O)c1cn(C)nc1C	3%	x	1%[46.1 µM]	x	28%	-5%	5%	8%[46.1 µM]
CC1CCCCN1CCCNC(=O)c1c(O)nc2ccccn2c1=O (stereo not drawn)	-16%	x	x	x	10%	-18%	0%	x
O=C(O)COc1ccc2c(c1)O/C(=C\c1ccco1)C2=O	15%	x	x	x	-3%	6%	2%	x
CC(=O)OC1CC2(O)C3CCC4CC(O)CCC4(C)C3CCC2(C)C1C1=CC(=O)OC1 (stereo not drawn)	-20%	x	u	x	u	x	x	u
Cc1sc2nc(COC(=O)c3cccc(OC(F)F)c3)[nH]c(=O)c2c1C	0%	x	-2%	x	-17%	8%	0%	-7%[46.1 µM]
CC1=C(C(=O)Nc2ccccc2)C(c2ccc(Br)cc2)n2nc(CCCO)nc2N1 (stereo not drawn)	x	20%	-16%[46.1 µM]	-1.4%	-19%	x	x	1%[46.1 µM]
O=C(CC1CCCC1)NNC(=O)c1ccc(F)cc1	7%	x	1%	x	12%	x	-13%	15%[46.1 µM]
New compounds follow
SMILES	RE007 growth inh	Cruzain inh noDet	Lassa entry inh	Cruzain Triton	2A StopGo	NS1 function inh	SARS PLpro yeast	Marburg entry inh
Cc1ccc(CCNC(=O)c2ccc3c(c2)N(Cc2ccccc2F)C(=O)c2ccccc2S3=O)cc1 (stereo not drawn)	x	4%	6%[46.1 µM]	0.1%	-20%	x	x	19%[46.1 µM]
CCCc1cc(=O)[nH]c(SCCc2ccccc2)n1	-15%	x	x	x	39%[activator]	-2%	-5%	x
O=C(Nc1ccc2nc(SCCOc3ccccc3)sc2c1)c1ccccc1F	x	1%	-6%[46.1 µM]	0.3%	0%	x	x	3%[46.1 µM]
N#C/C(=C\c1ccc([N+](=O)[O-])cc1)C(=O)Nc1ccccc1O	5%	-6%	14%	-3.6%	-24%	-14%	-30%	u
Nc1nn2cc(-c3ccccc3)nc2c2ccccc12	u	x	u	x	9%	x	-20%	-19%

Source: PubChem (National Center for Advancing Translational Sciences (NCATS))
